Assay outcomes: PubChem, National Center for Advancing Translational Sciences (NCATS)
ClpP mod – qHTS Assay for Activators of ClpP | ATP-dependent Clp protease proteolytic subunit (Bacillus subtilis (strain 168)), P80244 | hit rate 1.9% among 340,000 | purified B. subtilis ClpP, FRET peptide cleavage, 20 min | Potency, µM (top dose mostly 57.5 µM), without a hit: at the top dose activity change, negative = active; active = well fitted falling curve with a large enough effect; inconclusive = small, poorly fitted or top-dose-only effect; inactive = no such curve, though single readings can be large or run the other way; further: potency means the concentration at half of the fitted maximal effect; the source files actives as falling curves though it sought activators and does not explain the sign; nearly all actives have a fitted effect of over 65% in size; many hits overshoot -100%
Target sequence (P80244 whole entry, looked up): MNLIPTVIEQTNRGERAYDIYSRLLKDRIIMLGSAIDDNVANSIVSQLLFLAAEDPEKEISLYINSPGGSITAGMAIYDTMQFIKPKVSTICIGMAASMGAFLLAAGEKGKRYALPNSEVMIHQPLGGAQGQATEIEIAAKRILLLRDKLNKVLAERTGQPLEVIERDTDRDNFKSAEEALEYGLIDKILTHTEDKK
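Buffer: 100 mM Tris/HCl pH8, 100 mM KCl, 0.05% low protease BSA, 2.5% glycerol, 0.01% Tween-20. ClpP 10 microg/mL final; 20 min RT; delta FRET normalized to ADEP and DMSO controls.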
Sfp PPTase inh – Sfp phosphopantetheinyl transferase inhibition; Q9F4F7; Biochemical Sfp PPTase activity, qHTS; Potency, µM, for inactives: max response, negative = inhibition, hits mostly inhibitors; hit rate 3.5% among 310,000; AID 1490; active means well fitted inhibition curve with a large enough effect; inconclusive means small, poorly fitted or top-dose-only effect, or another doubt; inactive means no such curve, though single readings can be large or run the other way;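 further: the enzyme is Sfp with the accession as filed and its product quenches rhodamine fluorescence; potency means the concentration at half of the fitted maximal effect; 0% = enzyme reaction without inhibitor and -100% = no enzyme wells; top concentration of the series not given in the record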
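Sfp 15 nM + cpd, 15 min RT; start w/ rhodamine-CoA 5 uM, BHQ-2-YbbR 12.5 uM (final); 50 mM Hepes pH 7.6, 10 mM MgCl2, 0.01% NP-40, 0.01% BSA; read 525/598 nm at 0 and 30 min.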
Menin MLL FP FL – inhibitors of human menin-MLL interaction, wild-type MLL peptide; 290,000 tested, under 10 active; Fluorescence polarization, fluorescein-MLL peptide displacement from menin; FP activity change, % at 61.4 µM; inconclusive = falling polarisation curve, or a change in total fluorescence; inactive = total fluorescence flat and polarisation flat or rising; no compound was filed as active; the % refers to the polarisation; negative = inhibition;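 further: % of control where 0% means no effect; inhibitors lower the polarisation; unlabelled MLL peptide was the positive control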
gsp antag – antagonizes gsp, the McCune-Albright syndrome mutation; gsp-mutant cells, cAMP HTRF, 30 min; control for the full effect not named in the record; Potency, µM (titrated, usually from 76.9 µM), for inactives: top-dose activity change, negative = inhibition, most hits filed as inhibitors; hit rate 0.4% among 340,000; active = falling curve of any shape with a large fitted effect; inconclusive = falling curve, mostly with a smaller effect; inactive = flat or rising curve; cell line not stated here;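 further: intracellular cAMP measured with PDE inhibitor Ro 20-1724 present during compound exposure; potency means the concentration at half of the fitted maximal effect; on the % scale 0 is the no-effect control and ±100 the full control effect; nearly all actives have a fitted effect of over 65% in size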
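HTRF cAMP read-out (cAMP-d2 plus anti-cAMP antibody-K in lysis buffer, 30 min RT). Before lysis, cells are exposed to compounds with […] for 30 min at 37C in DPBS containing Ca/Mg, BSA and Tween 20.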
TRPML1 blocker – inhibitors of human TRPML1 channel; TRPML1-inducible cells, Ca2+ dye fluorescence, FDSS; stronger effect = lower value; inhibition of EC80 agonist-evoked calcium signal; activity change, negative = inhibition, % (concentration not given with the values); hit rate 0.02% among 390,000; AID 624415; in the data active means activity change below about -50%; inconclusive means about -30% to -50%; inactive means above about -30%;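 further: stimulus is agonist 54-4 at its EC80 concentration; on the % scale 0 is the no-effect control and ±100 the full control effect; compound concentration not given in the record; the text of the record puts the active cut at -80%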
Target sequence (Q9GZU1 whole entry, looked up): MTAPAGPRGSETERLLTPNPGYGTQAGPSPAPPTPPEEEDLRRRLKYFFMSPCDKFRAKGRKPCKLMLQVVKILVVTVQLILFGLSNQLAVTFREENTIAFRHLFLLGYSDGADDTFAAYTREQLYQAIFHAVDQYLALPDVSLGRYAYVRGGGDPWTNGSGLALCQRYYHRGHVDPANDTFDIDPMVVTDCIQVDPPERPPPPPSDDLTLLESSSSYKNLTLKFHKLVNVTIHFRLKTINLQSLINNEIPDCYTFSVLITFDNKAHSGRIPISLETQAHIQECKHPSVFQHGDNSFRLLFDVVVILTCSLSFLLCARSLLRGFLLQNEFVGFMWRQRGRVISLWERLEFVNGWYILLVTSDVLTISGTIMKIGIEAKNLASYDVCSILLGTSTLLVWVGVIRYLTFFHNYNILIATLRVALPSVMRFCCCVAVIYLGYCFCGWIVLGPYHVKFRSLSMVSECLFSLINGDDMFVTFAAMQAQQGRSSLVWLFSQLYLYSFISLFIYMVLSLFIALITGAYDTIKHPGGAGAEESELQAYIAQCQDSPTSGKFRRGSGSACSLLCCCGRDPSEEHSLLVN
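Calcium fluorescence in TRPML1-DL cells induced overnight with Tet: a 110 s read after compound pin addition, then a 110 s antagonist read after challenge with 54-4 at 4 uM final (EC80).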
TRPV1 potentiator – enhances activation of the human vanilloid receptor TRPV1. Q8NER1. TRPV1-expressing cells, Fluo-8 calcium influx, capsaicin EC20 potentiation; host cell line not named in the record; control for the full effect not named in the record. potentiation, % at 8.33 µM. hit rate 0.02% among 320,000; active means potentiation above 80%; inconclusive means 30% to 80%; inactive means below 30%; further: 0% is about no effect
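Fluo-8 calcium influx in TRPV1-expressing cells, kinetic read (ex 480/em 520 nm). Compound added and read 3 min for agonist activity, followed by capsaicin at EC20 final and 2 min further read for enhancement.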
gsp agonist – agonists of gsp mutant (McCune-Albright syndrome); gsp mutant cells, cAMP HTRF, 30 min; control for the full effect not named in the record; Potency, µM (highest dose often 76.9 µM), for the others: top-dose activation (cAMP increase), most hits filed as activators; hit rate 0.13% among 340,000; AID 624287; active = well fitted activation curve with a large enough effect; inconclusive = small, poorly fitted or top-dose-only effect, or another doubt; inactive = no such curve, though single readings can be large or run the other way; cell line not stated here;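 further: phosphodiesterase inhibitor Ro 20-1724 added with compounds to block cAMP breakdown; potency means the concentration at half of the fitted maximal effect; nearly all actives have a fitted effect of over 60% in size; about a fifth of the inactives were tested at one dose only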
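Cells in DMEM/10% FBS with G418 were pretreated with compounds in DMSO plus […] (300 uM stock) for 30 min at 37C. cAMP was measured by HTRF (cAMP-d2 plus anti-cAMP antibody-K) after 30 min at room temperature.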
Starred values were filed as active, the others as inactive; ? = inconclusive; nt = no result given; & = joins results of further samples; [ ] = dose if it differs, or a comment.

SMILES	ClpP mod	Sfp PPTase inh	Menin MLL FP FL	gsp antag	TRPML1 blocker	TRPV1 potentiator	gsp agonist
Cn1c(=O)c2cn3c(c2n(C)c1=O)C(c1ccccc1)CC(c1ccccc1)=N3 (stereo not drawn)	-0.2%	-6%	2.9	-5%	18	4	-18%
CN(NC1OC(=O)c2ccccc21)c1ccc(C(F)(F)F)cc1[N+](=O)[O-] (stereo not drawn)	nt	1%	0.1	-7%	13	21	-6%[15.4 µM]
COC(=O)N/N=C/c1cccc(OC(=O)c2ccc3c(c2)OCO3)c1	-0.2%	8%	1.1	9%	2	nt	-4%[15.4 µM]
CCN(Cc1cc(=O)n2ccsc2n1)Cc1nc2cc(OC)c(OC)cc2c(=O)[nH]1	-3.7%	?	0.8	-1%	nt	3	?
CCC(C(=O)NCc1ccc(F)cc1)n1nc(C)n2c(cc3occc32)c1=O (stereo not drawn)	-4.8%	10%	3.8	9%	10	17	?
CC(=O)Nc1ccc(-c2csc(NC(=O)C3=COCCO3)n2)cc1	-4.4%	nt	nt	1%	-13	29	-10%[15.4 µM]
COc1ccc(-c2nnc(N3CCOCC3)c3ccccc23)cc1	0.8%	10%	-0.6	-1%	-2	2	-6%
Cn1cc(Br)c(C(=O)NNC(=O)Nc2ccccc2C(F)(F)F)n1	-2.1%	18%	0.9	4%	-7	7	-9%
O=S(=O)(NCC(c1ccc2c(c1)OCO2)N1CCOCC1)c1ccc(Cl)cc1 (stereo not drawn)	-3.0%	nt	nt	1%	3	-16	-5%
CC(=O)c1c(CSc2ccccc2)oc2ccc(O)c(CN(C)C)c12	nt	-10%	-1.1	7%	21	8	19%
Cc1cc(=O)oc(C)c1C(=O)NC12CC3CC(CC(C3)C1)C2	-0.2%	10%	-2.5	-9%	0	-25	-31%[inhibitor]
Clc1ccc(-c2nnc(-c3cccnc3)o2)cc1	2.1%	7%	1.6	-5%	10	0	-7%[15.4 µM]
COc1cccc(C2/C(=C(\O)c3ccc4c(c3)OCCO4)C(=O)C(=O)N2CCN(C)C)c1 (stereo not drawn)	-2.4%	7%	-2.1	23%	-9	-5	?
COc1ccc(Sc2ccccc2CN(C)C)cc1OC	-0.8%	8%	0.5	-2%	7	23	1%
CC1CC(=O)N(C)c2ccc([N+](=O)[O-])cc2N1 (stereo not drawn)	-2.1%	14%	-1.1	12%	-4	20	1%[15.4 µM]
O=C(CCNS(=O)(=O)c1cccc2nsnc12)N1CCc2ccccc21	-1.8%	10%	3.0	3%	-18	-7	28%
CC(=O)c1c(C)[nH]c(C(=O)COC(=O)CN(C)S(=O)(=O)c2ccc(Cl)cc2)c1C	-1.1%	6%	-3.2	?	-2	1	3%
COc1ccc(CCNC(=O)c2cc(C(C)C)on2)cc1OC	0.8%	3%	0.9	-5%	9	7	3%
CSCC[C@H](NC(=O)[C@@H]1Cc2ccccc2CN1)C(=O)NC1CCCCC1	-0.2%	4%	2.1	12%	-1	6	-21%
CCOC(=O)N1CCN(S(=O)(=O)c2cc(Br)cc3c2N(C(=O)CC)CC3)CC1	-1.1%	31%[activator]	3.3	-3%	-3	2	-1%
CCOC(=O)c1[nH]c(C)c(C(=O)N2CCN(c3ccc(OC)cc3)CC2)c1C	nt	0%	2.0	8%	-6	-21	4%
O=C(c1ccccc1)C(O)C(c1ccccc1)N1CCOCC1 (stereo not drawn)	0.2%	2%	-0.8	10%	4	24	20%
COc1ccc(NC(=O)NCc2ccncc2)cc1	-1.0%	11%	0.3	7%	-8	-11	0%
CCCC1(c2ccccc2)NC(=O)N(C/C=C/Cl)C1=O (stereo not drawn)	nt	4%	5.1	7%	11	4	7%[15.4 µM]
CN1CCN(CCCNC(=O)c2cc3c(=O)oc4ccccc4c3s2)CC1	?	14%	3.5	9%	-6	1	?
Cc1ccccc1NC(=O)COC(=O)c1cc[n+]([O-])cc1	0.8%	nt	nt	13%	6	5	-4%
COc1ccc(C2NC(=O)CCC2[N+](=O)[O-])cc1OC (stereo not drawn)	-0.2%	20%	-6.2	2%	-10	-1	-39%[inhibitor]
O=P(C(=NCCO)NO)(N1CCOCC1)N1CCOCC1	-0.3%	21%	-1.2	1%	35	-18	-53%[inhibitor]
O=C(OCc1cnc(Cl)s1)c1c(F)cccc1F	1.6%	12%	-1.0	0%	35	-2	-2%
Cc1ccc(/C=N/NC(=O)c2cccc([N+](=O)[O-])c2)o1	1.2%	-14%	3.3	5%	-5	1	-6%
Cc1ccc(-c2cc(C(=O)Nc3ccc(S(=O)(=O)Nc4ncccn4)cc3)[nH]n2)c(O)c1C	nt	-6%	6.0	-9%	24	-26	0%[15.4 µM]
O=C(NC1CCSc2ccccc21)c1cccc(Br)c1 (stereo not drawn)	0.6%	5%	nt	-6%	4	11	-20%
CC1CC(NC(=O)c2ncn[nH]2)CC(C)(C)C1 (stereo not drawn)	-0.5%	2%	4.9	-2%	6	21	7%
Cc1ccc(NC(=O)NNC(=O)CN2C(=O)COc3ccccc32)cc1	nt	20%	2.5	8%	0	7	0%[15.4 µM]
C=CCn1c(SCc2cc(C(C)=O)ccc2OCC)nc2ccccc2c1=O	-1.7%	-12%	7.3	17%	-6	8	27%[15.4 µM]
CN(C)S(=O)(=O)c1ccc(/C(O)=C2/C(=O)C(=O)N(Cc3cccnc3)C2c2ccco2)cc1 (stereo not drawn)	-1.7%	-12%	1.4	3%	-4	2	?
Cc1cc(=O)n2nc(-c3ccccc3)sc2c1C#N	-7.8%	11%	3.7	3%	-9	-1	25%
COc1ccc(S(=O)(=O)NCCC(=O)OCc2cc(=O)oc3cc(C)ccc23)cc1[N+](=O)[O-]	-5.9%	nt	nt	-20%	-11	12	-10%[15.4 µM]
CC(C(=O)N1CCCCC1)n1sc2ccccc2c1=O (stereo not drawn)	-0.7%	8%	-2.6	-5%	4	1	6%
Cc1cc(NC(=O)COc2ncnc3sc(C)c(C)c23)no1	-13%	10%	5.0	6%	-9	-18	?
CCOc1cccc(-c2c(C(=O)N/N=C/c3cccnc3)nnn2-c2nonc2N)c1	-2.9%	3%	nt	-4%	-2	-25	19%
Cn1c(=O)c2c(nc(N3CCN(c4ccccn4)CC3)n2Cc2ccccc2Cl)n(C)c1=O	-4.0%	10%	-1.2	6%	1	-1	0%
CCCOP(=O)(c1ccc(N(C)C)cc1)C(O)c1ccccc1OC (stereo not drawn)	-3.5%	8%	2.8	0%	7	2	1%
O=C(C(=S)N1CCOCC1)c1c[nH]c2ccccc12	1.3%	11µM*	1.1	-9%	-22	-3	4%[15.4 µM]
CCc1nc(N)nc(N)c1-c1ccc(Cl)c(N=[N+]=[N-])c1	-1.1%&-2.4%	nt	nt	3%&7%	21&34	nt	11%&-6%
Cc1ccc(SCCOCCN2CCOCC2)cc1	1.2%	1%	-0.6	-1%	-1	8	-3%[15.4 µM]
COC(=O)CSc1nnc(-c2ccncc2)n1N	5.0%	-2%	4.5	0%	-6	-5	-14%
Cc1noc(C)c1COC(=O)CCCNC(=O)c1ccc(Cl)cc1	1.4%	7%	-2.7	1%	-7	10	-34%[inhibitor]
CCOC(=O)N1CCN(C(=O)CSc2nnc(CNC(=O)c3c(F)cccc3Cl)o2)CC1	-1.0%	11%	0.2	3%	14	13	0%
Cc1ccc(NC(=S)NCc2ccccc2)cc1S(=O)(=O)N1CCCCC1	-0.1%	-14%	3.3	?	13	?	1%
Cn1c(CCNC(=O)c2ccco2)nc2cc([N+](=O)[O-])ccc21	1.7%	13%	nt	-7%	7	20	?
C=CC(n1cncn1)C(O)(c1ccccc1)c1ccccc1 (stereo not drawn)	-3.0%	nt	nt	-5%	20	14	nt
CC(C)(C)c1ccc(OCC(O)CN2CCN(C(=O)c3ccccc3)CC2)cc1 (stereo not drawn)	-6.8%	?	-0.1	-1%	nt	13	3%
CCCOc1ccc(N2C(=O)CC(N3CCN(c4nc5ccccc5s4)CC3)C2=O)cc1 (stereo not drawn)	1.2%	4%	5.0	-1%	-1	26	2%
O=C(Nc1nc2ccccc2n1CCN1CCCCC1)c1ccc(Cl)cc1	nt	17%	2.3	nt	nt	3	nt
CS(=O)(=O)N(Cc1ccco1)Cc1ccccc1Cl	-5.6%	11%	4.6	-12%	2	7	-16%
O=C(O)CCCC(=O)OCCCCc1cccs1	-0.7%	10%	-2.1	-17%	5	-16	-2%
CCOC(=O)C(NCCc1ccccc1)(NC(C)=O)C(F)(F)F (stereo not drawn)	-2.1%	2%	3.0	11%	-9	0	4%
Cc1ccc(S(=O)(=O)Oc2ccccc2/C=N/N=C(N)N)cc1	nt	-23%	7.4	12%	7	-2	-34%[15.4 µM]
O=C(NCCc1ccc(F)cc1)Nc1ccc([N+](=O)[O-])cc1	-0.3%	6%	nt	-11%	17	-15	?

Carrying on:
SMILES	ClpP mod	Sfp PPTase inh	Menin MLL FP FL	gsp antag	TRPML1 blocker	TRPV1 potentiator	gsp agonist
O=C(NCc1ccco1)/C(=C\c1cccc([N+](=O)[O-])c1)NC(=O)c1ccco1	0.3%	11%	4.0	7%	-7	-9	?
COC(=O)N1C(=O)[C@](c2ccccc2)(C(C)C)N1C(=O)OC	-0.4%	-1%	0.3	16%	21	-12	11%
CCNC(=S)N/N=C/c1cc(Br)cc(Br)c1OC	0.4%	21%	-0.3	5%	8	2	-32%
Cc1cc(NS(=O)(=O)c2ccc(NC(=O)COc3cc(C)c(Cl)c(C)c3)cc2)no1	1.3%	nt	nt	?	-10	9	-14%
Cc1ccc(NC(=O)CSc2ccc3c(c2)OCCO3)nc1	-0.2%	nt	nt	10%	7	22	-4%[15.4 µM]
CC(=O)Nc1sc(N/N=C\c2ccc(O)cc2)nc1-c1cccs1	-5.4%	?	6.4	-11%	18	15	1%

Random draw from the library (roughly 4.9% active in at least one column).
